Bioassay records from PubChem.
HCMV UL50-53 inh: inhibitors of HCMV UL50-UL53 interaction, biochemical, HTRF. actives 0.15% (n = 190,000). normalized percent inhibition. inhibition, % (no concentration beside the values). HCMV UL50-UL53 nuclear egress complex (human cytomegalovirus);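 active = both replicates at 50% or more, plus weaker picks with an unusually low signal ratio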;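 also: stock transfer was 100 nL into about 20 µL; 0% = negative control wells and 100% = wells with untagged competitor protein; inactives centre near -12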
Active calls of the source: *; & = joins results of further samples. These rows are one share of the data; the hit share may differ from the screen's.

SMILES | HCMV UL50-53 inh
CC(Oc1ccccc1)C(=O)NCCSc1c[nH]c2ccccc12 (configuration not stated) | -12
C[N+]1(C)C[C@@H](O)C[C@H]1C(=O)[O-] | 7
O=C(O)C1CCN(S(=O)(=O)c2cccs2)CC1 | 8
COc1ccc(C=Nc2ccccc2)cc1 | -18
O=C(O)[C@H](O)c1ccccc1 | -30&-30
O=C(CCn1cccc(C(F)(F)F)c1=O)Nc1cccc(C(F)(F)F)c1 | 4
Cc1cccc(CN(C)Cc2ccc(-c3nc(C(F)(F)F)c(C)c(=O)[nH]3)cc2)n1 | -16
C=CC(=O)c1ccc2ccccc2c1 | -17
COc1ncccc1-c1cnn(CC(=O)Nc2cc(-c3ccccn3)nn2C)c1 | -21&-21
CCOC(=O)N1CCc2c(sc(NC(=O)c3ccccc3)c2C#N)C1 | -12
Cc1ccc(C)n1-c1ccc2ncsc2c1 | -16
Cc1nnc(NC(=O)N(C)CC2COc3ccccc3O2)s1 (configuration not stated) | 1
COc1ccc(CNC(=O)CCSCc2ccccc2C)cc1 | -13
COc1ccc(O)c(C=Nc2cc(C)ccn2)c1 | -33
O=C(Cc1ccc(Cl)cc1)Nc1cccc2nsnc12 | -20
COc1ccc(-c2cc(=O)c3c(O)cc(O)cc3o2)cc1 | -27
O=C(O)c1ccccc1SC1CC(=O)N(c2ccccc2)C1=O (configuration not stated) | -4
Cc1cc(N2CCOCC2)nc(SCC(=O)N2CCCC2)n1 | -18
O=C(CSc1ccc(Cl)cc1)N1CCCC1 | 1
O=C(NCc1ccc2c(c1)OCO2)c1ccc2c(c1)OCO2 | 0
CC(C)C(CC(=O)O)N1Cc2ccccc2C1=O (configuration not stated) | 9
CC(C)C[C@@H](C=O)NC(=O)[C@H](CC(C)C)NC(=O)[C@H](CC(C)C)NC(=O)OCc1ccccc1 | -3
CC(=O)NCC(=O)N1CCN(Cc2ccc3c(c2)OCO3)C(=O)C1 | 41&41
Brc1ccccc1-c1nnc2sc(-c3cccs3)nn12 | -16
CC(=O)O[C@]1(C(C)=O)CC[C@H]2[C@@H]3C[C@H](C)C4=CC(=O)CC[C@]4(C)[C@H]3CC[C@@]21C | -29
N[C@@H](Cc1cc(-c2ccc(Cl)cc2Cl)cc(CP(=O)(O)O)c1O)C(=O)O | 8
COc1cc2nccc(Oc3ccc(NC(=S)NC(=O)c4ccccc4C)cc3)c2cc1OC | -34
C[C@@H]1C[C@H]2[C@@H]3C[C@H](F)C4=CC(=O)C=C[C@]4(C)[C@@]3(F)[C@@H](O)C[C@]2(C)[C@@]1(O)C(=O)CO | -16
CCOc1nc2cccc(C(=O)OCc3oc(=O)oc3C)c2n1Cc1ccc(-c2ccccc2-c2noc(=O)[nH]2)cc1 | -10
CC(C)(C)NC(=O)C1C(=O)NC2(C)CC1c1ccccc1O2 (configuration not stated) | -13
CC1CN(c2nnnn2-c2ccccc2)CC(C)O1 (configuration not stated) | 0
Cc1cc(O)c(C=Nc2ccccc2Br)c(=O)o1 | -7
CCOC(=O)c1cc2cc(-c3c(C)oc4cc(O)ccc4c3=O)ccc2o1 | -22
COc1c(-c2ccc(C)cc2)nc2ccccn12 | -12
O=P(O)(O)OC1C(O)C(OP(=O)(O)O)C(O)C(OP(=O)(O)O)C1O (configuration not stated) | -23&-23
CC(C)Cn1c(C(C)NC(=O)c2ccccc2)nc2ccccc21 (configuration not stated) | 4
COc1ccccc1Nc1ncc(-c2cccs2)s1 | -35
O=C(Cc1ccccc1)c1c[nH]c(C(=O)NCCCn2ccnc2)c1 | -2
COC1C(O)CC(=O)OC(C)CC=CC=CC(OC2CCC(N(C)C)C(C)O2)C(C)CC(CC=O)C1OC1OC(C)C(OC2C[C@](C)(O)C(O)C(C)O2)C(N(C)C)C1O (some centres not stated) | -16
Cc1coc2c1C(=O)C(=O)c1c-2ccc2c(C)cccc12 | 11
Cc1csc(-c2cc(C(=O)N(C)C3CCN(C)CC3)cc(S(=O)(=O)N3CCOCC3)c2)c1 | 1
CCc1ccc(OCc2ccccc2C(=O)Nc2ccc3nc(C)cc(N)c3c2)cc1 | 2&-6
CCC1OC(=O)C(C)C(OC2C[C@@](C)(OC)C(O)C(C)O2)C(C)C(OC2OC(C)CC(N(C)C)C2O)[C@](C)(OC)CC(C)C(=O)C(C)C(O)[C@]1(C)O (some centres not stated) | -5&-83
CSc1ccccc1C(=O)Nc1ccc(Cl)cc1 | -1
O=C(COc1ccccc1)NC1CCS(=O)(=O)C1 (configuration not stated) | 1
CCOC(=O)C1=C(N)Oc2ccc(Br)cc2C1C(C#N)C(=O)OCC (configuration not stated) | -32
CC(C)(C)n1nc2c(c1NC(=O)c1ccccc1)CSC2 | -21
NC(=O)c1ccc(N(C(N)=O)c2c(F)cccc2F)nc1-c1ccc(F)cc1F | 6&-34&-33&-13
CN(CCc1ccc(Cl)c(Cl)c1)CCN1CCCC1 | 8
N#Cc1cnc2cnc(NCc3cccnc3)cc2c1NC1CCCCCC1 | 21
COc1ccc2c(c1)sc(=NC(=O)CSCC(=O)NC1CCCCC1)n2C | -15
CN(C)CCCNc1ncnc2c1cnn2-c1ccccc1 | -18
N#C[C@@H]1C[C@@H]2C[C@@H]2N1C(=O)[C@@H](N)C12CC3CC(CC(O)(C3)C1)C2 | -6
CC(C)c1nnc(NC(=O)c2ccc3ccccc3c2)s1 | 5
O=S(=O)(Nc1ccc(Br)cc1)C(F)(F)F | 1&-10
CCCCC/C=C\C\C=C/C=C/C=C/[C@@H](SC[C@H](NC(=O)CC[C@H](N)C(=O)O)C(=O)NCC(=O)O)[C@@H](O)CCCC(=O)O | -11
OCc1cc(Cl)ncc1Cl | -1
NC(=O)NN=Cc1ccc([N+](=O)[O-])o1 | -101
FC(F)(F)COc1cc(-c2n[nH]c(=S)n2Cc2ccco2)cc(OCC(F)(F)F)n1 | 26
CC(C)n1cnc2c(N(Cc3ccccc3)c3cccc(Cl)c3)nc(N(CCN(C)C)Cc3ccccc3)nc21 | -5

(further entries)
SMILES | HCMV UL50-53 inh
Cc1[nH]c2ccccc2c1-c1csc(N)n1 | 3
COC(=O)c1c(NC(=O)CCc2ccccc2)c2cc(NC(C)C(C)(C)O)cnc2n1C (configuration not stated) | -6
CNC(=O)[C@H](Cc1c[nH]c2ccccc12)NC(=O)[C@@H](CC(=O)NO)CC(C)C | -5
N=c1oc2ccccc2cc1C(N)=O | -33
CCCNC(=O)c1ccc2c(c1)ncn2-c1cccc(C)c1 | 6
CC(=O)Oc1ccc2c(=O)c(-c3csc(C)n3)coc2c1 | -28
CC(C)Oc1ccc(Cl)cc1-c1nnc2ccccn12 | -10
CCc1ccc(CNc2cnc3c(c2)c(NC(=O)c2cccnc2)c(C(=O)OC)n3CC(C)C)o1 | -15
CCCNC(=O)N1N=C(c2ccc(N)cc2)c2cc3c(cc2C1C)OCO3 (configuration not stated) | -26
CCCCCCC[N+](CC)(CC)CCCCc1ccc(Cl)cc1 | 6
Clc1ccc(Cn2ncc3c(NC4CCCCC4)ncnc32)cc1 | -1
O=C(NC(=O)c1ccc(OCC(F)(F)F)nc1)NN1CCOCC1 | 4
Fc1ccc(-c2ncc3ccccn23)cc1 | -54
NCc1ccccc1CC(=O)N[C@@H]1C(=O)N2C(C(=O)O)=C(CSc3nnnn3CC(=O)O)CS[C@H]12 | -13
O=C(CN1C(=O)CC(c2ccccc2)Sc2ccccc21)N1CCCCC1 (configuration not stated) | -17
Cc1ccc2c(c1)NC(=O)C(CCCl)O2 (configuration not stated) | 2
N#Cc1ccccc1-n1cccc1 | -6
CC(C)Cc1cn(C2CCN(C3CCCCCC3)CC2)nn1 | -17
Cc1ccc(C)c(CSc2ncnc3ccccc23)c1 | 6
CCCCn1c(CCNC(=O)CC)nc2ccccc21 | -23
Cc1cc(C)nc(Nc2ccc(NS(=O)(=O)/C=C/c3ccccc3)cc2)n1 | -19
CCOC(=O)c1cc2cc(Br)ccc2oc1=O | -56
CCOC(=O)Cc1nc(-c2ccc(Cl)cc2)n[nH]1 | -11
O=c1[nH]c(-c2ccccc2)nc2ccsc12 | -8
c1ccc(-c2cn3c(n2)SCC3)cc1 | 7
CN(C)C(CNC(=O)c1cccs1)c1cccnc1 (configuration not stated) | -8
CCCCC(=O)Nc1c(-c2cccs2)nc2ccccn12 | -14
CC1(C)CCN(C(=O)c2cc(-c3cnc(C4CC4)nc3)nc3cc(F)ccc23)C1 | -19
C=CCSc1nc2c(cc1C#N)C(=O)CC(C)(C)C2 | -15
COc1ccc(CC(=O)NCCSc2c[nH]c3ccccc23)cc1 | 6
CCOC(=O)c1sc(NC(=O)CCOc2ccccc2)cc1C | -12
CC(C)C[C@H](NC(=O)N1CCCCCC1)C(=O)N[C@H](Cc1cn(C)c2ccccc12)C(=O)N[C@H](Cc1ccccn1)C(=O)O | -5
Cc1ccc(NC(=O)CC(NCc2cccnc2)C(=O)O)cc1C (configuration not stated) | 3
c1ccc2[nH]c(-c3nc4ccccc4o3)nc2c1 | -18
N#CCNC(=O)c1cc2nc(-c3cccs3)cc(C(F)(F)F)n2n1 | 1
COc1cccc(C=NCCN2CCOCC2)c1O | -16
COCCn1c(=NC(=O)c2ccccc2)sc2cc(NC(C)=O)ccc21 | 14
Cc1ccc2[nH]c(=O)c(N3CCCCC3)c(-c3ccccc3)c2c1 | -5
O=C1OCCC1Sc1nc2ccccc2c(=O)[nH]1 (configuration not stated) | -8
CN(C)CCC1(c2ccc(Cl)cc2)Cc2ccccc2C(=O)O1 (configuration not stated) | -5
COC1C[C@H]2CCC(C)[C@@](O)(O2)C(=O)C(=O)N2CCCC[C@H]2C(=O)OC(C(C)CC2CCC(OP(C)(C)=O)C(OC)C2)CC(=O)C(C)C=C(C)C(O)C(OC)C(=O)C(C)CC(C)C=CC=CC=C1C (some centres not stated) | -4
CC(NC(=O)c1c[nH]c2ccccc12)c1ccccc1 (configuration not stated) | -2
Cc1nc(/N=C/NO)c(Br)cc1Br | 2
Cc1ccc(C(=O)Nc2nc3c(s2)C(=O)CC(C)(C)C3)cc1 | -2
O=C(Nc1nccs1)C1Cc2ccccc2CN1S(=O)(=O)c1ccc(F)cc1 (configuration not stated) | -7
CN[C@@H]1[C@H](O[C@H]2[C@H](O[C@@H]3[C@@H](O)[C@H](O)[C@@H](N=C(N)N)[C@H](O)[C@H]3N=C(N)N)O[C@@H](C)[C@]2(O)CO)O[C@@H](CO)[C@H](O)[C@H]1O | -5
COC(=O)c1ccc(/C=C2/SC(=S)N(CCC(=O)N(Cc3ccccc3)C(C)(C)C)C2=O)cc1 | -20
Cc1nn(C)c(C)c1-c1ccnc(N(C)Cc2cc(-c3ccccn3)no2)n1 | -18&-18
O=C(O)c1ccc(-c2ccc(F)cc2)cc1 | -7
O=C(Nc1ccc2sccc2c1)c1cccs1 | 6
Cc1cc2cc(CNC(=O)CCc3ccccc3)ccc2n1C | 4
CC(C)CC(NC(=O)CNC(=O)c1cc(Cl)ccc1Cl)B1OC(=O)CC(CC(=O)O)(C(=O)O)O1 (configuration not stated) | 22
CC(C)C(=O)Nc1ccccc1-c1nc2ccccc2[nH]1 | -5
CCCCCCCC/C=C\CCCCCCCCCCCC(N)=O | -13&-13
CN(CCCCCCCCCCN(C)C(=O)Oc1cccc([N+](C)(C)C)c1)C(=O)Oc1cccc([N+](C)(C)C)c1 | -23
N#Cc1ccsc1NC(=O)CCc1ccccc1 | -4
NS(=O)(=O)c1ccc(-c2ccc(C=C3C(=O)c4ccccc4C3=O)o2)cc1 | -19
O=c1c(-c2ccc(Br)cc2)coc2cc(O)ccc12 | -9
Cn1c(=NC(=O)/C=C\c2ccccc2)sc2ccccc21 | -23
O=C1NC(=O)C(Cc2ccccc2)S1 (configuration not stated) | -8

Sorted by number of heavy atoms (low to high): part of the list above.
SMILES | HCMV UL50-53 inh
Cc1nc(/N=C/NO)c(Br)cc1Br | 2
O=C1NC(=O)C(Cc2ccccc2)S1 (configuration not stated) | -8
O=C(O)c1ccc(-c2ccc(F)cc2)cc1 | -7
O=C(Nc1ccc2sccc2c1)c1cccs1 | 6
N#Cc1ccsc1NC(=O)CCc1ccccc1 | -4
O=c1c(-c2ccc(Br)cc2)coc2cc(O)ccc12 | -9
CC(NC(=O)c1c[nH]c2ccccc12)c1ccccc1 (configuration not stated) | -2
Cn1c(=NC(=O)/C=C\c2ccccc2)sc2ccccc21 | -23
Cc1ccc(C(=O)Nc2nc3c(s2)C(=O)CC(C)(C)C3)cc1 | -2
Cc1cc2cc(CNC(=O)CCc3ccccc3)ccc2n1C | 4
CCCCCCCC/C=C\CCCCCCCCCCCC(N)=O | -13&-13
NS(=O)(=O)c1ccc(-c2ccc(C=C3C(=O)c4ccccc4C3=O)o2)cc1 | -19
O=C(Nc1nccs1)C1Cc2ccccc2CN1S(=O)(=O)c1ccc(F)cc1 (configuration not stated) | -7
COC(=O)c1ccc(/C=C2/SC(=S)N(CCC(=O)N(Cc3ccccc3)C(C)(C)C)C2=O)cc1 | -20
CN(CCCCCCCCCCN(C)C(=O)Oc1cccc([N+](C)(C)C)c1)C(=O)Oc1cccc([N+](C)(C)C)c1 | -23
COC1C[C@H]2CCC(C)[C@@](O)(O2)C(=O)C(=O)N2CCCC[C@H]2C(=O)OC(C(C)CC2CCC(OP(C)(C)=O)C(OC)C2)CC(=O)C(C)C=C(C)C(O)C(OC)C(=O)C(C)CC(C)C=CC=CC=C1C (some centres not stated) | -4

Exported comma-delimited: part of the list above
SMILES,HCMV UL50-53 inh
Cc1nc(/N=C/NO)c(Br)cc1Br,2
CC(NC(=O)c1c[nH]c2ccccc12)c1ccccc1 (configuration not stated),-2
O=C(O)c1ccc(-c2ccc(F)cc2)cc1,-7

Other results.
SMILES | HCMV UL50-53 inh
CC(=O)N(C)c1ccc(NC(=O)/C=C/c2ccco2)cc1 | -55
O=c1cc(N2CCOCC2)oc2c(-c3cccc4c3sc3ccccc34)cccc12 | -14&-11&-10&-11&-7
Cc1ccc(N2CCN(C(=O)c3ccc(Br)cc3)CC2)cc1C | 10&-4
C[C@@H]1[C@H](O)[C@@H](C)/C=C/C=C/C=C/C=C/C=C/C=C/C=C/[C@H](O[C@@H]2O[C@H](C)[C@@H](O)[C@H](N)[C@@H]2O)C[C@@H]2O[C@](O)(C[C@@H](O)C[C@@H](O)[C@H](O)CC[C@@H](O)C[C@@H](O)CC(=O)O[C@H]1C)C[C@H](O)[C@H]2C(=O)O | 11
O=c1oc2ccc(NS(=O)(=O)c3ccccc3)cc2s1 | -4
